SARS PLpro yeast: qHTS of Yeast-based Assay for SARS-CoV PLP. S. cerevisiae expressing SARS-CoV PLpro, growth rescue; control for the full effect not named in the record. Potency, µM (titrated, usually from 32.9 µM), for the others: top-dose activity, positive = growth rescue. hit rate 0.19% among 330,000. AID 485353, 2010; note: 0% is about no effect; nearly all actives have a fitted effect of over 55% in size; growth read by luminescence after 48 h
NS1 inh: qHTS Assay for Inhibitors of Influenza NS1 Protein Function; S. cerevisiae slowed by influenza A NS1, growth recovery by OD600; Potency, µM (series often up to 46.1 µM), without a hit: at the highest dose activity, positive = more growth; hit rate 0.4% among 270,000; AID 2326, 2010; note: actives are rising curves; nearly all actives have a fitted effect of over 50% in size
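A cell-based growth assay was used: compounds that relieve NS1-induced slow growth of budding yeast raise OD600. Assay medium was yeast nitrogen base with ammonium sulphate and -URA supplement, pH 6.0, with 2% galactose.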
RE007 growth inh: qHTS Assay for Inhibitors of the HIV-1 protein Vpr; hit rate 0.21% among 360,000; S. pombe RE007 Vpr strain, BacTiter-Glo ATP luminescence, 24 h; control for the full effect not named in the record; Potency, µM (doses to about 92.2 µM), inactives show at the top dose activity change, negative = less growth; active = well fitted falling curve with a large enough effect; inconclusive = small, poorly fitted or top-dose-only effect; inactive = no such curve, though single readings can be large or run the other way;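 note: % is set by controls: 0 for no effect and ±100 for the full control effect; nearly all actives have a fitted effect of over 50% in size; the assay follows cell death caused by Vpr and the record does not say whether a fall means rescue or toxicity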
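Fission yeast RE007 carrying one integrated HIV-1 vpr copy, seeded at OD 0.01 in PMG+AL medium with 23 nL pinned compound. Grown 24 h at 30 degrees; viability read by BacTiter-Glo luminescence after 5 min.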
Cruzain Triton: qHTS Assay for Promiscuous and Specific Inhibitors of Cruzain (with detergent); Cruzipain (Trypanosoma cruzi), P25779; purified cruzain, Z-FR-AMC fluorescence, 0.01% Triton; Potency, µM, without a hit: max response, negative = inhibition, most hits filed as inhibitors; hit rate 0.43% among 200,000; AID 1478, 2009; active = well fitted curve in the direction sought with a large enough effect; inconclusive = small, poorly fitted or top-dose-only effect, or another doubt; inactive = no such curve, though single readings can be large; an effect the other way counts as inactive or inconclusive;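 note: plate controls were neutral wells for no effect and buffer without enzyme for full effect; nearly all actives have a fitted effect of over 40% in size; top concentration of the series not given in the record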
Target sequence (P25779 123-467 limits assumed): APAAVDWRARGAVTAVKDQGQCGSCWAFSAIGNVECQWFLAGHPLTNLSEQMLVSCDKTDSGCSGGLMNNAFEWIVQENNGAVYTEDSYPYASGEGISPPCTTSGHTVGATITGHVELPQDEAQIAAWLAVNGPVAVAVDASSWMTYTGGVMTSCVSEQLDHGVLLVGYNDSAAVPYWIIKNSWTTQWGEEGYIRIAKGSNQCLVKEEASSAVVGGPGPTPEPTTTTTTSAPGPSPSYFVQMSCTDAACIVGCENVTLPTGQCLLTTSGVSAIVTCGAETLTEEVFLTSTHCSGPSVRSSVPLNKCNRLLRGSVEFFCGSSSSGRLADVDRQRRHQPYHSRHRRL
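Sodium acetate buffer (100 mM, pH 5.5) containing 5 mM DTT and 0.01% Triton X-100 hosted 1.5 nM cruzain and test compound for 15 min at room temperature. Cleavage of 2 uM Z-FR-AMC was then tracked by fluorescence.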
Marburg entry inh: qHTS for inhibitors of binding or entry into cells for Marburg Virus; AID 540276, 2011; Potency, µM (highest dose often 37.8 µM), inactives show at the highest dose activity change, negative = inhibition, actives largely listed as inhibitors; Marburg virus pseudotyped entry inhibition, cell reporter; control for the full effect not named in the record; about a third of the inactives were read at about 46 µM; hit rate 1.8% among 300,000; active = well fitted inhibition curve with a large enough effect; inconclusive = small, poorly fitted or top-dose-only effect, or effect the other way; inactive = flat fitted curve, though single readings scatter; tested in HEK293 cells; about a fifth of its hits are not listed in these tables; note: % is set by controls: 0 for no effect and ±100 for the full control effect; luciferase read-out
Cruzain inh noDet: qHTS Assay for Promiscuous and Specific Inhibitors of Cruzain (without detergent); Cruzipain (Trypanosoma cruzi), P25779; purified cruzain, Z-FR-AMC fluorescence, no detergent; Potency, µM, without a hit: max response, negative = inhibition, hits mostly inhibitors; hit rate 2.3% among 200,000; AID 1476, 2009; active = well fitted curve in the direction sought with a large enough effect; inconclusive = small, poorly fitted or top-dose-only effect, or another doubt; inactive = no such curve, though single readings can be large; an effect the other way counts as inactive or inconclusive;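 note: plate controls were enzyme without inhibitor for no effect and buffer without enzyme for full effect; nearly all actives have a fitted effect of over 40% in size; top concentration of the series not given in the record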
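Detergent-free condition (0.00005% Triton X-100) in acetate buffer pH 5.5 with DTT. 1.5 nM enzyme and compound were pre-mixed 15 min, then 2 uM Z-FR-AMC substrate added; reaction progress from fluorescence change between first and third reads (60 s).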
2A StopGo: High Throughput Screening for Foot and Mouth Disease Virus Antivirals; human cells with a luciferase reporter of 2A StopGo recoding; control for the full effect not named in the record; Potency, µM (titrated, usually from 57.9 µM), for inactives: at the highest dose signal change, negative = less light; hit rate 1.2% among 410,000; AID 1159524, 2015; active = well fitted falling curve with a large enough effect; inconclusive = small, poorly fitted or top-dose-only effect; inactive = no such curve, though single readings can be large or run the other way; tested in HEK293T cells; note: % is set by controls: 0 for no effect and ±100 for the full control effect; nearly all actives have a fitted effect of over 45% in size; luciferase light after 4 h
LASV entry inh: qHTS for Inhibitors of binding or entry into cells for Lassa Virus | Lassa virus pseudotype entry inhibition, cell reporter; control for the full effect not named in the record | Potency, µM (series often up to 37.9 µM), inactives show at the top dose activity change, negative = inhibition, hits mostly inhibitors | hit rate 1.2% among 300,000 | AID 540256, 2011; active means well fitted inhibition curve with a large enough effect; inconclusive means small, poorly fitted or top-dose-only effect, or effect the other way; inactive means flat fitted curve, though single readings scatter; tested in HEK293 cells; note: % is set by controls: 0 for no effect and ±100 for the full control effect; nearly all actives have a fitted effect of over 50% in size; luciferase read-out
Active calls of the source: *; ? = inconclusive; . = not tested or not shown; & = joins results of further samples; [ ] = remark or other dose. Unless noted, calls come from the whole dose curve; as a rule, active means well fitted rising curve with a large enough effect; inconclusive means small, poorly fitted or top-dose-only effect; inactive means no such curve, though single readings can be large or run the other way. Potency is the fitted concentration of half-maximal effect.

SMILES | SARS PLpro yeast | NS1 inh | RE007 growth inh | Cruzain Triton | Marburg entry inh | Cruzain inh noDet | 2A StopGo | LASV entry inh
COc1ccc(C(=S)N2CCOCC2)cc1OS(=O)(=O)c1ccc(Br)cc1 | -7% | -3% | 5% | . | -25% | . | ? | 9%
NC(=O)c1nnn(Cc2cc(Cl)c(C(=O)c3ccc(Cl)cc3)c(Cl)c2)c1N | . | -5% | 7% | -5.6% | . | -13% | ? | .
Cc1csc(NC(=O)Cn2cnnn2)n1 | 0% | -10% | -1% | -2.5% | ? | -10% | -7% | 7%
Cc1ccc(N2C(=O)C3C=NNC3C2=O)cc1 (configuration not stated) | 0% | 0% | 2% | . | 11%[46.1 µM] | . | 2% | -4%
COC(=O)c1c(CCl)noc1C(=O)NC(C)C | -2% | 2% | -10% | 0.8% | . | 2% | -22% | .
Cc1oc(-c2cc(F)ccc2F)nc1CN1CCN(C)C(=O)[C@@H]1C | 1% | 8% | -10% | . | 2%[46.1 µM] | . | -12% | 22%[46.1 µM]
Oc1ccc(-c2csc(Nc3ncccn3)n2)c(O)c1 | 0% | . | -11% | . | -26%[46.1 µM] | . | 32%[activator] | -22%
COc1ccc(Cc2nnc(-c3cccc(C)c3)o2)cc1OC | ? | -45% | -3% | -5.2% | . | -9% | 2% | .
Cc1ccc(CN2CCCN(Cc3c(F)cccc3Cl)S2(=O)=O)cc1 | -7% | -1% | 0% | . | -14%[46.1 µM] | . | 18% | ?
Cc1ccc2c(c1)cc(CN(Cc1ccc3c(c1)OCO3)S(=O)(=O)c1ccccc1)c1nnnn12 | 11% | -16% | -3% | -3.1% | -10%&-10% | ? | -12% | -19%
Cc1csc2nc(COc3ccccc3NC(=O)c3ccc(C(C)(C)C)cc3)cc(=O)n12 | . | . | . | -0.3% | 24%[46.1 µM] | -12% | 3% | 25%[46.1 µM]
COc1ccc(Nc2oc(/C=C/c3ccccc3OC)nc2C#N)cc1 | . | . | . | -1.5% | -2%[46.1 µM] | ? | 17% | -2%[46.1 µM]
Cc1ccc(-c2nn(-c3ccccc3)cc2C(=O)N2CCOCC2)cc1 | 1% | -18% | -8% | 1.6% | 1% | ? | 0% | -5%
CCCCSc1nc(C)cc(NC(=S)Nc2ccc(OC)cc2)n1 | -25% | 11% | -5% | -3.4% | ? | ? | 8% | ?
CCn1cc(C(=O)O)c(=O)c2cnc(N3CCN(C(=S)NC(=O)c4ccc(Cl)cc4Cl)CC3)nc21 | 0% | 10% | 0% | . | 0%[46.1 µM] | . | -15% | 18%[46.1 µM]
O=C(CSc1nnc(Cc2cc(=O)[nH]c(=O)[nH]2)n1-c1ccc(Cl)cc1)NC1CCCC1 | -5% | 8% | 8% | 0.1% | 0% | 7% | -7% | .
COc1cccc(-c2noc(C3CCCN(C(=O)c4ccc(F)cc4)C3)n2)c1 (configuration not stated) | -1% | -16% | 5% | . | ? | . | 20% | 15%[46.1 µM]
COc1ccc(C2C(C(=O)c3ccc(C)o3)=C(O)C(=O)N2c2cc(C)on2)cc1OC (configuration not stated) | -5% | 19% | 15% | -6.0% | -8% | -5% | 0% | 12%
COc1ccc(CN(Cc2cc3cc(C)ccc3[nH]c2=O)C(=O)N(C)C)cc1 | -3% | 7% | -6% | 3.4% | ? | -2% | ? | -6%
CCCCN1C2CCCC1CC(NC(=O)C1CCCCC1)C2 (configuration not stated) | -12% | 5% | -2% | 0.1% | -7% | 12% | 10% | ?
Cc1cc(C)n(-c2ccc(C(=O)Nc3cccc([N+](=O)[O-])c3)cc2)n1 | -1% | -6% | 2% | . | ? | . | -29% | 4%
COc1ccc(NC2CCCN(C(=O)CCn3cccn3)C2)cc1 (configuration not stated) | -2% | -1% | -10% | . | . | . | -9% | .
C=CCNC(=O)COc1cc(C)ccc1C | 24% | 6% | . | 0.7% | ? | 1% | -14% | 1%
CCOc1ccccc1NC(=O)C1CCCN(S(=O)(=O)c2c(C)[nH]c(=O)[nH]c2=O)C1 (configuration not stated) | 1% | -1% | 19% | 1.6%&0.1% | ? | -5%&-7% | -3%&-2% | -6%
COc1ccc2c(C)c(CCC(=O)NCCc3ccccc3)c(=O)oc2c1 | . | . | . | -26% | -13%[46.1 µM] | -4% | -8% | -3%[46.1 µM]
COc1ccc(-c2nc3ncccc3n2O)cc1 | 0% | 0% | 4% | . | ? | . | 28% | ?
COc1cccc(C(=O)Nc2ccc(C3CC3(Cl)Cl)cc2)c1 (configuration not stated) | 0% | -1% | 1% | . | . | . | 16% | .
COc1ccc(-c2ccnc(-c3ccc(OCCCF)cc3)n2)cc1 | -2% | 1% | 11% | -4.5% | -1% | 13% | -11% | ?
O=C(c1ccncc1)N1CCc2ccccc2C1 | -1% | 1% | 14% | . | . | . | -6% | .
CCCCNC(=O)Oc1cccc(N2CCCC2=O)c1 | -3% | -19% | -2% | -1.1% | 4% | 1% | -6% | ?
O=C(c1ccc(F)c(S(=O)(=O)N2CCOCC2)c1)N1CCc2ccccc21 | 1% | 16% | 5% | . | -21% | . | ? | -10%
CS(=O)(=O)c1ccc(Cl)c(NC(=O)CCCc2nc3ccccc3c(=O)[nH]2)c1 | -4% | . | 14% | . | -3% | . | -8% | -2%
C=C(C)CNC(=S)Nc1cccc2cnccc12 | -13% | -3% | -9% | 5.1% | -9% | 16% | 3% | -12%
Cc1cccc(C)c1OCCn1nnc2ccccc21 | . | -12% | -6% | . | -5% | . | -16% | 1%
O=C(NNC(=O)c1cccs1)c1ccc(Br)cc1 | 0% | -4% | -3% | . | ? | . | 41%[activator] | 1%
CC(=O)NCCn1c(SCc2ccc(C)cc2)nc2ccccc2c1=O | 2% | 1% | -18%[3.69 µM] | -1.6% | -13% | ? | -20% | -22%
CC(=O)c1cc(F)ccc1OCC(=O)N1CCCc2ccccc21 | -10% | -1% | -11% | . | ? | . | 18% | 10%[46.1 µM]
NS(=O)(=O)c1ccc(NC(=O)COC(=O)c2c3c(nc4ccccc24)/C(=C\c2ccc4c(c2)OCO4)CCC3)cc1 | -7% | ? | 11% | -1.4% | 12µM* | 20µM* | -4% | ?
COCCCN1C(=O)C(=O)/C(=C(/O)c2ccc(S(=O)(=O)N3CCCCC3)cc2)C1c1cccc(OC)c1 (configuration not stated) | 6% | 19% | 6% | . | . | . | -1% | .
Cc1cc(C)cc(OCC(=O)OCC(=O)Nc2cc(S(=O)(=O)N3CCOCC3)ccc2Cl)c1 | 0% | . | -4% | . | ? | . | -9% | -16%
N/C(=N\[N+](=O)[O-])NCCCC(NC(=O)CNC(=O)c1ccccc1)C(=O)O (configuration not stated) | -1% | 14% | 0% | . | ? | . | -6% | 14%
Cc1ccc(C(=O)NCCc2ccc(S(=O)(=O)N3CCCC3)cc2)cc1 | -1% | -7% | -7% | . | -15% | . | 4% | -10%
Cc1ccc(C(=O)COC(=O)CCN2C(=O)C3C4C=CC(C5CC45)C3C2=O)cc1 (configuration not stated) | -6% | -31% | -9% | . | 12%[46.1 µM] | . | -18% | 18%[46.1 µM]
Cc1cc(C(=O)Nc2ccc3c(c2)CCC3)c2ccccc2n1 | 0% | . | 7% | . | 15%[46.1 µM] | . | 11% | 2%
COc1ccc(CCNC(=O)c2cc(C)nc3c2c(C)nn3-c2ccc(C)cc2)cc1OC | . | . | . | -9.5% | . | ? | -29% | -14%[46.1 µM]
Cn1c(=O)c2c(nc(Oc3ccc(C#N)cc3)n2Cc2ccc(Cl)cc2Cl)n(C)c1=O | . | . | . | 1.9% | 18%[46.1 µM] | 11% | -18% | -5%[46.1 µM]
C=CCOn1c(=O)c(-c2cccs2)[n+]([O-])c2ccccc21 | -6% | -1% | ? | 0.6% | 37% | 11% | -10% | -10%
O=C(CN(CC1CCCO1)C(=O)CNS(=O)(=O)c1ccc(F)cc1)NCc1ccc(F)cc1 (configuration not stated) | 0% | 4% | -19% | . | -3%[46.1 µM] | . | -4% | -18%
CCn1c(C2CCN(S(=O)(=O)c3ccc(OC)cc3)CC2)n[nH]c1=S | -1% | -5% | 2% | . | ? | . | 0% | -20%
C=CCN=C1SCC(=O)N1S(=O)(=O)c1ccc(C)cc1 | 1% | 15% | 40% | 1.2% | ? | -6% | -11% | -4%
C/C(=C\c1ccccc1)CN1CCC(C(=O)N2CCCCC2)CC1 | -2% | -5% | 13% | -4.2% | 2% | -3% | -16% | 17%
Cc1ccc(S(=O)(=O)Nc2nc(-c3ccc(F)cc3)cs2)cc1 | -1% | -32% | 7% | . | 4%[46.1 µM] | . | 10% | ?
Cc1ccc(OCC(=O)N2CC(C)CC(C)C2)c([N+](=O)[O-])n1 (configuration not stated) | 8% | . | ? | . | -12%[46.1 µM] | . | -8% | 3%[46.1 µM]
CC(C)CC1NC(=O)N(CC(=O)Nc2ccc(OC(F)F)cc2)C1=O (configuration not stated) | 0% | . | 2% | . | 16% | . | -11% | 11%
CC1(C)c2ccccc2-c2nc3ccccc3cc2C1N1CCOCC1 (configuration not stated) | . | . | 29% | . | ? | . | -4% | ?
CN1CCC(n2nccc2N)CC1 | -3% | 0% | -11% | 6.0% | 1%[46.1 µM] | -6% | 8% | 20%
Cc1nc(N)c(Cc2ccc(Cl)cc2Cl)c(N)n1 | 1% | . | 22% | . | -12%[46.1 µM] | . | ? | ?
N#CC[C@H](Cc1ccccc1)N1CC[C@@H](O)CCC1=O | 7% | 0% | -6% | . | . | . | -21% | .
